Assay outcomes as filed in PubChem.
D2 agonist – Beta-Arrestin HTS for Positive Allosteric Modulators of the Human D2 Dopamine Receptor: Agonists; D(2) dopamine receptor (Homo sapiens), P14416; DiscoveRx PathHunter D2 beta-arrestin, luminescence, 90 min; 100% = 57 uM dopamine signal; activation, % (test concentration not listed); actives 0.084% (n = 360,000); in the data active = activation above about 40%; inconclusive = about 15% to 40%; inactive = below about 15%; further: compound concentration not given in the record; the text of the record calls up to 30% inactive
Target sequence (P14416 whole entry, looked up): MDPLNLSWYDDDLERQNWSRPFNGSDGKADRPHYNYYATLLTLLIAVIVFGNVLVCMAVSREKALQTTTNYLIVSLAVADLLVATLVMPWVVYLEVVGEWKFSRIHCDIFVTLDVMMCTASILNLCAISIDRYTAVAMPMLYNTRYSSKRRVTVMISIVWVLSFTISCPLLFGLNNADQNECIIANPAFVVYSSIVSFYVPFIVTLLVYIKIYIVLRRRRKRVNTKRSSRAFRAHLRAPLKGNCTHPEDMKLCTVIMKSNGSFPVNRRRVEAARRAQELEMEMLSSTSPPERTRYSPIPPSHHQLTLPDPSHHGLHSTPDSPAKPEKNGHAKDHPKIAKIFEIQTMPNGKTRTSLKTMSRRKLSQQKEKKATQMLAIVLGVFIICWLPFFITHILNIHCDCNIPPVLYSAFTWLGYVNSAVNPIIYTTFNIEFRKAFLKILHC
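DiscoveRx PathHunter D2 beta-arrestin cells (2,100/well) attached overnight, then compound-stimulated 90 min at 37 C in HBSS/10 mM HEPES/0.1% Tween-20 buffer; beta-galactosidase complementation read by luminescence after 1 h at ambient temperature. Dopamine 57 uM final (EC100) as control.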
gsp antag – qHTS for Antagonists of gsp, the Etiologic Mutation Responsible for Fibrous Dysplasia/McCune-Albright Syndrome: qHTS; gsp-mutant cells, cAMP HTRF, 30 min; control for the full effect not named in the record; Potency, µM (highest dose often 76.9 µM), for inactives: at the highest dose activity change, negative = inhibition, hits mostly inhibitors; actives 0.4% (n = 340,000); AID 624288, 2012; active = falling curve of any shape with a large fitted effect; inconclusive = falling curve, mostly with a smaller effect; inactive = flat or rising curve; cell line not stated here;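 further: intracellular cAMP measured with PDE inhibitor Ro 20-1724 present during compound exposure; potency means the concentration at half of the fitted maximal effect; on the % scale 0 is the no-effect control and ±100 the full control effect; nearly all actives have a fitted effect of over 65% in size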
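G418-selected cells were plated in DMEM/10% FBS for 16-24 h at 37C, then treated with compounds plus the PDE inhibitor […] (300 uM solution added) for 30 min at 37C. Intracellular cAMP was measured by HTRF after 30 min lysis at room temperature.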
ClpP mod – qHTS Assay for Activators of ClpP; purified B. subtilis ClpP, FRET peptide cleavage, 20 min; Potency, µM (highest dose often 57.5 µM), inactives show top-dose activity change, negative = active; actives 1.9% (n = 340,000); AID 651965, 2013; active = well fitted falling curve with a large enough effect; inconclusive = small, poorly fitted or top-dose-only effect; inactive = no such curve, though single readings can be large or run the other way; further: potency means the concentration at half of the fitted maximal effect; the source files actives as falling curves though it sought activators and does not explain the sign; nearly all actives have a fitted effect of over 65% in size; many hits overshoot -100%
Target sequence (P80244 whole entry, looked up): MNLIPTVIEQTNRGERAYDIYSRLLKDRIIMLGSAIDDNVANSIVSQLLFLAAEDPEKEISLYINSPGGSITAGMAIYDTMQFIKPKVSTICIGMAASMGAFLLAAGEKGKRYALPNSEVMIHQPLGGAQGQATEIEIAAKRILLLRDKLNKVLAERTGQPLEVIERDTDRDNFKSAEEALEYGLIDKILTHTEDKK
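FRET quenching reversal measured ClpP activation: 10 microg/mL B. subtilis ClpP at pH 8 with the FRET-FV decapeptide, read at 430 nm after 320 nm excitation. The 20-min minus 0-min signal was scaled between DMSO/no-enzyme wells and ADEP (5.8 microM final).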
Menin MLL FP FL – qHTS Assay for Inhibitors Targeting the Menin-MLL Interaction in MLL Related Leukemias: Competition With Fluorescein Labeled MLL-derived Peptide. Fluorescence polarization, fluorescein-MLL peptide displacement from menin. FP activity change, % at 61.4 µM. 290,000 tested, under 10 active; inconclusive = falling polarisation curve, or a change in total fluorescence; inactive = total fluorescence flat and polarisation flat or rising; no compound was filed as active; the % refers to the polarisation; negative = inhibition;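 further: % of control where 0% means no effect; inhibitors lower the polarisation; unlabelled MLL peptide was the positive control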
PINK1 modulator – A Quantitative High throughput Screen to Identify Chemical Modulators of PINK1 Expression; Potency, µM (series often up to 76.6 µM), for inactives: top-dose activation (PINK1 increase), usual class: activators; AID 624263, 2012; PINK1 immunofluorescence, high-content cytometry, 24 h; actives 0.2% (n = 410,000); active = well fitted activation curve with a large enough effect; inconclusive = small, poorly fitted or top-dose-only effect; inactive = flat fitted curve, though single readings scatter; cell line not stated here;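 further: potency means the concentration at half of the fitted maximal effect; % of control where 0% means no effect; nearly all actives have a fitted effect of over 65% in size; a mitochondrial uncoupler was the plate control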
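Compound titrations (5 concentrations, 24 h) on a stable cell line; DMSO and CCCP controls. Endpoint: fixed-cell PINK1 immunofluorescence with mitochondrial, cell and nuclear markers, scanned by microplate cytometer.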
gsp ag – qHTS for Agonist of gsp, the Etiologic Mutation Responsible for Fibrous Dysplasia/McCune-Albright Syndrome: qHTS | gsp mutant cells, cAMP HTRF, 30 min; control for the full effect not named in the record | Potency, µM (top dose mostly 76.9 µM), for inactives: at the highest dose activation (cAMP increase), hits mostly activators | actives 0.13% (n = 340,000) | AID 624287, 2012; active = well fitted activation curve with a large enough effect; inconclusive = small, poorly fitted or top-dose-only effect, or another doubt; inactive = no such curve, though single readings can be large or run the other way; cell line not stated here;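 further: phosphodiesterase inhibitor Ro 20-1724 added with compounds to block cAMP breakdown; potency means the concentration at half of the fitted maximal effect; nearly all actives have a fitted effect of over 60% in size; about a fifth of the inactives were tested at one dose only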
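Cells stably selected in G418 were plated at 2000/well, grown 16-24 hr, then given compounds in DMSO with the PDE inhibitor […] (300 uM solution added) for 30 min at 37C; cAMP was read by HTRF.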
Sfp inh – qHTS Assay for Inhibitors of Bacillus subtilis Sfp phosphopantetheinyl transferase (PPTase); Biochemical Sfp PPTase activity, qHTS; Potency, µM, for the others: max response, negative = inhibition, hits mostly inhibitors; AID 1490, 2009; 4'-phosphopantetheinyl transferase ffp (Bacillus subtilis), Q9F4F7; actives 3.5% (n = 310,000); active means well fitted inhibition curve with a large enough effect; inconclusive means small, poorly fitted or top-dose-only effect, or another doubt; inactive means no such curve, though single readings can be large or run the other way;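 further: the enzyme is Sfp with the accession as filed and its product quenches rhodamine fluorescence; potency means the concentration at half of the fitted maximal effect; 0% = enzyme reaction without inhibitor and -100% = no enzyme wells; top concentration of the series not given in the record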
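Fluorescence-quenching assay: 15 nM Sfp-PPTase preincubated 15 min at room temperature with compound, then 5 uM rhodamine-CoA and 12.5 uM BHQ-2-labelled YbbR peptide added. Fluorescence (ex 525/em 598 nm) read at start and after 30 min; difference gives rate.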
* marks the source's active call; other numbers are inactive results; u = inconclusive; x = not tested or not shown; & = joins results of further samples; [ ] = remark or other dose. This is a random part of the collection. About 5.1% of those tested had a hit in this group.

SMILES	D2 agonist	gsp antag	ClpP mod	Menin MLL FP FL	PINK1 modulator	gsp ag	Sfp inh
CCN(C(=O)Cc1c(C(=O)O)n(C)c2ccccc12)c1cccc(C)c1	1.0	-4%	-11%	1.9	0.4%	4%	-5%
C/C(Cn1nnc2ccccc21)=N\OC(=O)c1cc(F)c(F)cc1Cl	-0.1	4%	-0.8%	2.0	-0.4%	21%	21%
CCOC(=O)C1(Cc2ccccc2Cl)CCN(S(=O)(=O)N(C)C)CC1	-4.6	-2%	0.1%	0.7	-1.2%	-10%[15.4 µM]	0%
O=C(CN(Cc1ccco1)C(=O)c1cc(=O)[nH]c2ccccc12)Nc1ccccc1Br	-4.8	4%	-11%	1.1	-0.7%	-56%[inhibitor]	12%
CCN(CC)S(=O)(=O)c1ccc2[nH]cc(C(=O)NCCN3CCCCCC3)c(=O)c2c1	1.3	12%	u	-0.2	1.0%	-17%	-3%
Cc1noc(C)c1C(=O)N1CCN(Cc2ccccc2)CC1	-2.1	8%	0.6%	0.7	-1.3%	2%	13%
NNC(=O)c1cccn(Cc2ccc(Cl)cc2Cl)c1=O	1.8	-12%	u	-3.5	-0.7%	12%	u
CC(=O)Nc1ccc(S(=O)(=O)Oc2ccccc2N2C(=O)C3C4CCC(C4)C3C2=O)cc1 (configuration not stated)	-3.3	-1%	-1.2%	25	2.6%	-18%	5%
Cn1ncc(Br)c1C(=O)OCC(=O)Nc1nc(-c2ccccc2)cs1	-0.3	1%	-2.4%	14	1.5%	u	24%
CCN(CC)CCn1c2c(c(SCC(=O)Nc3cc(C)on3)nc1=O)CCCC2	-0.9	7%	0.9%	x	0.0%	-2%	x
O=C(NCCCc1ccccc1)c1cccc(NC(=O)c2ccccc2)c1	1.0	-6%	0.4%	x	0.3%	x	x
O=C(Nc1cccc(Cl)c1)c1cc(F)cc2c1OCOC2	-0.6	-9%	x	3.4	3.4%	9%[15.4 µM]	31%
CCOc1ccc(N2C(=O)CC(N(CCc3ccc(OC)c(OC)c3)C(=S)Nc3ccccc3)C2=O)cc1 (configuration not stated)	5.9	-14%	-1.4%	0.4	18%	-1%	10%
S=C(NCCc1ccccc1)N1CCN(Cc2ccccc2)CC1	-1.9	2%	0.2%	4.7	-0.8%	21%	u
COc1cccc(-c2cc3nc(NCCOc4ccccc4Cl)n(C)c(=O)c3s2)c1	-5.2	x	u	x	4.9%	x	x
COC(=O)c1c(N2C(=O)[C@H]3[C@@H](C2=O)[C@]2(C(=O)Nc4c(C)cccc42)N2CCC[C@@H]32)sc(C)c1C	-2.9	-5%	4.5%	x	-0.5%	8%	1%
CCC(Sc1nnnn1-c1ccccc1)C(=O)Nc1nc2ccccc2s1 (configuration not stated)	-2.4	u	0.5%	3.2	-0.2%	18%	11%
O=C(c1ccncc1)N1CCC2(CC1)CN(c1ccc(-c3ccccc3)cc1)C2	x	x	x	-3.2	1.0%	x	-12%
Cc1ccc(S(=O)(=O)c2nc(S(=O)(=O)c3ccccc3)sc2N2CCN(CCO)CC2)cc1	-2.3	-16%	0.4%	0.2	-0.7%	-36%[inhibitor]	15%
CC1CCc2[nH]c3ccc(C(=O)Nc4ccc(C(=O)N(C)C)cc4)cc3c2C1 (configuration not stated)	-3.3	5%	5.6%	x	6.6%	20%	-21%
CCOC(=O)C(C)Sc1ncnc2c1nnn2-c1ccc(F)cc1 (configuration not stated)	-1.2	-2%	-0.7%	1.1	-0.5%	-10%	12%
Cc1cc(=O)n2nc(N3CCCC(C(=O)NCCCN4C(C)CCCC4C)C3)sc2n1 (configuration not stated)	-4.0	x	1.4%	x	1.8%	1%	x
Cc1cc(C(=O)COC(=O)Cn2cnc3c2c(=O)n(C)c(=O)n3C)c(C)n1C	-0.9	22%	-2.0%	1.9	0.7%	4µM*	18%
O=C(NC1CCC1)C1CCC(=O)N(Cc2ccccc2F)C1 (configuration not stated)	2.0	-5%	-0.3%	x	15%	15%	7%
O=c1[nH]nc(SCc2ccccc2Cl)n1-c1ccc2c(c1)OCCO2	2.3	-3%	x	-0.4	6.4%	-2%[15.4 µM]	16%
CC(=O)Nc1ccc2sccc2c1	-0.3	-40%	x	0.7	2.3%	11%[15.4 µM]	14%
Cc1cccc(NC(=O)CCC(=O)Nc2nnc(C3CCCCC3)s2)c1	-2.4	4%	-16%	x	0.7%	27%	3%
CCCSc1nc2cc(S(=O)(=O)N3CCOCC3)ccc2n1CC	0.8	-5%	-0.7%	x	-0.8%	-35%[inhibitor]	12%
COc1ccc(CNC(=O)CN2CCC(NC(=O)c3ccc(OC)cc3)CC2)cc1	-1.0	-19%	x	2.2	-0.3%	7%[15.4 µM]	9%
CCOC(=O)c1ccc(N2Cc3ccccc3C2)cc1O	3.0	-16%	-2.0%	-1.0	x	-22%	2%
O=C(CN1CCC(n2nnc3cc(F)ccc32)CC1)NCCc1ccccc1	-2.3	2%	-0.6%	-1.2	-0.3%	-14%	19%
CC(C#N)N1CCN(S(=O)(=O)c2ccc3c(c2)CCC3)CC1 (configuration not stated)	-0.6	7%	2.4%	x	1.0%	4%	x
O=C(CCCn1c(=S)[nH]c2ccccc2c1=O)N1CCCCC1	2.1	11%	-0.7%	0.7	0.2%	8%	-1%
O=C(CSc1nc(O)cc(=O)[nH]1)N1c2ccccc2Sc2ccccc21	u	7%	x	4.8	2.4%	-49%[inhibitor]	-1%
COc1ccc(OC)c(S(=O)(=O)N2CCCC(C(=O)N3CCCCCC3)C2)c1 (configuration not stated)	-1.9	-1%	-1.8%	37[activator]	-1.7%	21%	9%
CCOC(=O)C1=C(O)C(=O)N(c2ccc(S(N)(=O)=O)cc2)C1c1cccc([N+](=O)[O-])c1 (configuration not stated)	-0.2	10%	x	-1.8	-2.0%	-13%[15.4 µM]	-10%
O=C(Cc1ccc(Cl)cc1)Nc1ccccc1CO	-2.9	10%	-0.5%	1.9	-1.5%	-10%	-5%
O=C(O)CP(=O)(O)O	-5.8	-10%	-2.9%&0.0%	0.1&-1.9	-0.1%&-0.5%	x	-2%&-29%
Cc1ccc(S(=O)(=O)N2CCCCC2)cc1NC(=O)CNC(C)c1ccc(Cl)c(Cl)c1 (configuration not stated)	1.2	-17%	0.6%	x	0.7%	u	x
Cn1c(=O)cc(OCCCC(=O)N2CCCCC2)c2ccccc21	0.8	-4%	-3.6%	3.5	-5.9%[38.3 µM]	10%	12%
Cc1ccc(S(=O)(=O)N2CCOC2CNC(=O)C(=O)NCCN(C)C)cc1 (configuration not stated)	3.3	14%	-1.0%	x	-2.8%	3%	9%
CC(=O)Nc1cnc(-c2cccc(C(=O)N(C)C)c2)cn1	-3.0	x	4.5%	x	0.3%	x	x
Cc1ccsc1/C=N/NC(=O)c1cccnc1	-1.4	2%	x	-0.3	0.6%	1%	9%
Cc1cc(N2CCCC2=O)ccc1S(=O)(=O)N1CCOCC1	-2.2	-1%	x	-0.9	1.3%	-1%[15.4 µM]	-15%
CCOC(=O)N1CCN(CCC(=O)Nc2ccc(OC(F)(F)F)cc2)CC1	-3.5	1%	0.0%	3.9	0.8%	-5%	12%
O=C(Cc1ncc(C(F)(F)F)cc1Cl)N1CCN(c2ccc(F)cc2)CC1	-0.8	-2%	-2.8%	6.1	-1.5%	0%	6%
O=C(c1ccncc1)N1CCC[C@@]2(CCN(Cc3ccncc3)C2)C1	x	x	x	-2.0	-0.6%	x	13%
CCc1nc2ccccc2c(C(=O)OCC(=O)Nc2cccc(S(=O)(=O)N3CCOCC3)c2)c1C	11	15%	-4.2%	1.7	1.3%[38.3 µM]	24%	25%
CC(=O)c1cc2c(cc1NC(=O)CSc1nnc(C)s1)OCO2	-3.0	7%	16%	-1.3	3.5%	-9%	17%
Cc1ccc(S(=O)(=O)N(CC(=O)NCCSc2ccccn2)c2ccccc2F)cc1	0.8	u	-0.1%	-3.8	1.0%	19%[15.4 µM]	8%
CC1(C)CC(=O)C(N=Nc2cccnc2)=C(O)C1	-4.1	6%	x	-1.7	0.3%	-13%[15.4 µM]	-20%
Fc1ccc(-c2nc3nc4ccccc4nc3n2Cc2ccco2)cc1	-1.5	-6%	-6.2%	5.8	1.7%	4%	18µM*
Cc1ccc(NC(=O)C(=O)c2cn(CC(=O)N3CCCCC3)c3ccccc23)cc1	-4.1	-17%	432%	5.8	2.5%	-3%[15.4 µM]	-3%
c1ccc2c(CCNc3ncnc4nc[nH]c34)cccc2c1	-0.1	u	-5.1%	1.8	2.6%	15%	9%
COc1ccc(C2CC(c3ccccc3)=NN2C(=O)c2cccs2)cc1 (configuration not stated)	3.5	6%	u	4.4	-2.9%[38.3 µM]	13%	-27%
COc1ccc(-c2csc(NC(=O)C3CSC4(C)CCC(=O)N34)n2)c(OC)c1 (configuration not stated)	2.1	-10%	0.4%	x	3.3%	19%	x
COC(=O)c1ccc2ccccc2c1OC1OC(CO)C(O)C(O)C1NC(C)=O (configuration not stated)	1.8	-20%	-1.7%	-2.6	6.2%	-5%	5%
Oc1cccc(-c2csc(C(O)(c3ccccc3)C(F)(F)F)n2)c1 (configuration not stated)	-1.4	x	-0.3%	x	5.3%	x	x
COc1ccc(NS(=O)(=O)c2cc(N)ccc2N2CCCC2)cc1	-2.7	0%	-1.5%	x	11%	0%[15.4 µM]	x
